# AID923: qHTS Assay for Allosteric/Competitive Inhibitors of Caspase-1: Spectroscopic Profiling in AFC Spectral Region; compound fluorescence, AFC spectral region (405/520 nm); almost no hit is shown here; Potency, µM (series often up to 57.5 µM), inactives show top-dose fluorescence increase, hits mostly activators; hit rate 1.1% among 75,000; AID 923, 2007; active = well fitted activation curve with a large enough effect; inconclusive = small, poorly fitted or top-dose-only effect;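 also: potency is read from the fitted curve at half-maximal effect; 0% is about no effect; scaled to a free AFC standard on each plate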
#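 Titrations up to 57 uM read every 20 sec for 3 min (405/520 nm) with 50 nM caspase 1 and 5 uM Ac-WEHD-AFC, pH 7.5 HEPES buffer. Fluorescence-vs-time intercept gave baseline, scaled against on-plate AFC standard.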
# A488 autofl: compound fluoresces in the A488 spectral region; compound autofluorescence, A488 spectral region, dye equivalency; stronger effect = higher value; max dye equivalency, M; hit rate 0.1% among 59,000; active = above 10 nM dye equivalent; inconclusive = 1 to 10 nM; inactive = 1 nM or less; about half of its hits are not listed in these tables;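 also: highest value over a series up to 38 µM; compound alone in buffer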
#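 Read-out: relative fluorescence at 480/540 nm, expressed as Alexa 488 dye-equivalent concentration from a six-point A488 standard included per plate. Conditions: 100 mM Tris, pH 8.0; 15 min incubation, room temperature.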
# A647 fluor: compound autofluorescence in A647 spectral region; Compound fluorescence, A647 channel (570/671 nm), Tris buffer; max dye-equivalent concentration, M; 59,000 tested, under 10 active; active means above 1 µM dye equivalent; inconclusive means 0.1 to 1 µM; inactive means 0.1 µM or less;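 also: values scaled relative to a standard on each plate; highest value over a series up to 38 µM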
#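 Buffer was dispensed, compounds and Alexa 647 standards were pin-transferred, and plates sat 15 min at room temperature. Intensity at 570/671 nm was then converted to dye-equivalent concentration using the plate's A647 standard curve.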
# Resorufin autofl: compound fluoresces in the resorufin spectral region; Compound fluorescence, resorufin region 547/598 nm, buffer; stronger effect = higher value; hit rate 0.04% among 59,000; max dye-equivalent concentration, M; active = above 10 nM dye equivalent; inconclusive = 1 to 10 nM; inactive = 1 nM or less; a few of its hits are not listed in these tables; also: highest value over a series up to 38 µM
#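 Compounds in 100 mM Tris, pH 8.0, incubated 15 min at room temperature, then fluorescence read at 547 nm excitation/598 nm emission. Signal converted to dye-equivalent concentration via an on-plate six-point resorufin standard curve, per compound concentration.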
# TSHR agonist: agonists of human thyroid stimulating hormone receptor; HEK293-CNG-TSHR cells (CNG channel as cAMP sensor), membrane potential dye, cAMP; Potency, µM (series often up to 57.1 µM), for the others: top-dose activation, usual class: activators; hit rate 0.48% among 73,000; AID 926; active = well fitted activation curve of enough size with the parental cells flat; inconclusive = any curve in the parental cells; inactive = parental cells flat and receptor cells flat or falling; also: potency is read from the fitted curve at half-maximal effect; % of control where 0% means no effect; weak receptor curves with flat parental cells got no call and are not listed
# Target sequence (P16473 whole entry, looked up): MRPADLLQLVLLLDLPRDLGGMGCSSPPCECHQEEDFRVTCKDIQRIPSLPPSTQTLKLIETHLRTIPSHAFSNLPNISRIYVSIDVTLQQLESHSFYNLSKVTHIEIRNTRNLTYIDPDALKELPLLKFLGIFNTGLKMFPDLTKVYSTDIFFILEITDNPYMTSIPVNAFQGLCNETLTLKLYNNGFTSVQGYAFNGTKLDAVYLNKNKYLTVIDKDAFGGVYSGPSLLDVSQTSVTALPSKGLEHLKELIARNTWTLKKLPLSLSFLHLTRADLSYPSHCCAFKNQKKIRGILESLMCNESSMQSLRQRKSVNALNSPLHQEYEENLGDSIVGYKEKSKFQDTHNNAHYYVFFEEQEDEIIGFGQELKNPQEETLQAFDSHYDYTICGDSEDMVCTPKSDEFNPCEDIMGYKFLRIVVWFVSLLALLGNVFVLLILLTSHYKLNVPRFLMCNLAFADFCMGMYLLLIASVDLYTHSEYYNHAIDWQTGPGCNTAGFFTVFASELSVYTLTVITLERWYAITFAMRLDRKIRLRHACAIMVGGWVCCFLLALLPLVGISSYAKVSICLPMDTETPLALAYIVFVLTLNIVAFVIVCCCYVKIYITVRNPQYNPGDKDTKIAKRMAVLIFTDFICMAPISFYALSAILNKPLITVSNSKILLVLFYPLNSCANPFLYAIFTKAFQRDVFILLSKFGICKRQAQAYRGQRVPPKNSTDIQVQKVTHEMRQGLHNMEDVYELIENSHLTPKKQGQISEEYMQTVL
#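 HEK 293 cells stably expressing TSHR and a cAMP-gated CNG channel; parental CNG-only cells as counterscreen. Cells preloaded 60 min with membrane potential dye plus 100 uM RO 20-1724, then compound 30 min; fluorescence read at 590 nm.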
# Active calls of the source: *; i = inactive; ? = inconclusive; . = not tested or not shown; [ ] = remark or other dose. A portion of the library; count on the stated rates, not on these rows.
SMILES,AID923,A488 autofl,A647 fluor,Resorufin autofl,TSHR agonist
O=C(O)CNC(=O)CC12CC3CC(CC(C3)C1)C2,0.1%,i,1e-09,i,-2%
CCCOc1cccc(C2/C(=C(/O)c3ccc(OC)cc3)C(=O)C(=O)N2CCN(C)C)c1 (stereo not given),1.4%,i,1e-09,i,3%
COc1ccc(S(=O)(=O)N(CC(=O)O)c2ccccc2)cc1,-1.1%,i,1.4e-09,i,-2%
Cc1ccc(C)c(NC(=O)Cn2nc(C)c3ccccc3c2=O)c1,0.2%,i,1e-09,i,-2%
Cc1nc(SCC(=O)c2ccc(F)cc2)n[nH]1,1.2%,.,.,.,-1%[11.4 µM]
O=C(Cn1nnc(-c2cccc(C(F)(F)F)c2)n1)N1CCOCC1,-0.8%,i,1e-09,i,5%
O=C(CCCc1nc(-c2ccccc2Cl)no1)NC1CCCCC1,0.6%,i,1e-09,i,25%
COC(=O)[C@@]1(Cc2ccc(F)cc2)[C@H]2c3cc(C(=O)N4CCCC4)n(CCO)c3C[C@H]2CN1C(=O)c1ccccc1,-4.2%,.,.,.,13%
CCCS(=O)(=O)N1CCN(C(=O)c2cccs2)CC1,1.0%,i,1e-09,i,0%
CCC/C=C(\CCC)C(NS(=O)(=O)c1ccc(C(F)(F)F)cc1)c1ccc(C(=O)OC)cc1 (stereo not given),1.1%,.,.,.,9%
CCc1nnc2sc(-c3ccc(NC(=O)c4ccc5c(c4)OCCO5)cc3)nn12,-0.5%,i,2.3e-08,i,20%
CCCCn1nc(C(=O)O)ccc1=O,1.4%,i,1.1e-09,i,3%
Cc1nn(C)c(C)c1NC(=O)c1ccnn1C,1.8%,i,3.8e-09,i,?
O=c1[nH]cnc2c1N1CCC2CC1,1.4%,i,2.7e-08,i,-3%
Cc1nnc(SCC(=O)Nc2nsc(-c3ccccc3)n2)s1,-1.7%,i,1.6e-08,i,-3%
COC(=O)C(c1cc(OC)c(O)c(OC)c1)(N1CCNC(C)C1)C(F)(F)F (stereo not given),-1.1%,.,.,.,-4%
COc1ccc(N(CC(=O)O)S(C)(=O)=O)cc1OC,0.0%,i,1e-09,i,7%
Fc1ccc(Nc2nc(Oc3ccc4c(c3)OCO4)nc(N3CCOCC3)n2)c(F)c1,-0.4%,.,.,.,5%
O=C(CCNC(=O)Cn1ccc2ccccc2c1=O)NCCCN1CCN(c2ccc(F)cc2)CC1,-1.1%,i,2.9e-08,i,-3%[11.4 µM]
O=C(CSc1nnc(Cc2ccccc2)n1-c1ccc(F)cc1)N1CCOCC1,-1.9%,i,2e-08,i,0%
CN(c1ccc(C(=O)NCC2CCCO2)cc1)S(=O)(=O)c1ccccc1 (stereo not given),-1.3%,.,.,.,1%
O=C(NCC(=O)N1CCCC1)c1cccs1,-1.5%,i,4.2e-08,i,5%
O=C1C(=O)c2ccccc2C(O)=C1C(C1=C(O)c2ccccc2C(=O)C1=O)c1ccc(Cl)cc1,16%[11.5 µM],i,1e-09,i,-5%[11.4 µM]
O=C(NCCOCCOCCNC(=O)c1cccnc1)c1cccnc1,.,i,3.2e-08,i,.
O=C(c1cc2nc(-c3ccco3)cc(C(F)(F)F)n2n1)N1CCN(c2ccccn2)CC1,17%,i,7e-08,i,-5%
# Later entries
SMILES,AID923,A488 autofl,A647 fluor,Resorufin autofl,TSHR agonist
CC1=C(C(=O)Nc2ccccc2)C(c2cccs2)C(C#N)=C(SCC#N)N1 (stereo not given),4.0%,i,4.2e-08,i,17%
OCCNCCCCOc1ccccc1F,-1.8%,.,.,.,4%[11.4 µM]
O=C(CCn1c(=O)sc2ccccc21)Nc1ccon1,0.3%,i,3.4e-08,i,-5%
COc1ccccc1CNC(=O)N[C@@H](Cc1ccccc1)C(=O)O,-1.6%,i,6.8e-09,i,2%
FC(F)(F)c1nnc2sc(-c3ccco3)nn12,-0.4%,i,7.4e-09,i,?
Cc1ccc(S(=O)(=O)N2CCN(C(=O)CN3CCOCC3)C2)cc1,2.5%,i,1.8e-08,i,0%
Cc1ccc(-c2nnc(N3CCN(C(=O)CN4CCOCC4)CC3)c3ccccc23)cc1,-1.6%,i,1e-09,i,?
Cc1ccccc1S(=O)(=O)Cc1ccc(C(=O)N2CCN(c3ncccn3)CC2)o1,0.7%,i,3e-08,i,4%
COc1cccc(N(CC(=O)N2CCN(C)CC2)S(=O)(=O)c2ccccc2)c1,0.5%,i,1e-09,i,4%
O=C(O)CCNS(=O)(=O)c1ccccc1,2.0%,i,1.7e-08,i,1%
CCOC(=O)CSc1n[nH]c(-c2cccnc2)n1,1.0%,i,1e-09,i,16%
CCCC/C=C/C(NC(=O)c1ccco1)c1ccccc1 (stereo not given),-2.0%,.,.,.,?
O=C(C1CC1)N1CCc2cc(Br)cc(S(=O)(=O)NCc3ccco3)c21,-1.3%,i,5.8e-09,i,?
CC1CCCN(C(=O)CNC(=O)Cn2ccc3ccccc3c2=O)C1 (stereo not given),0.6%,.,.,.,-2%
CCOCCCNC(=O)c1cc2sc(Cl)cc2n1CC,3.2%,.,.,.,?
C=CCn1c(COc2cccc3cccnc23)nnc1SCC(=O)OC,-0.1%,i,1.4e-09,i,-2%
CN(C)Cc1ccccc1-c1cc(N(C)Cc2ccco2)ncn1,-0.8%,i,3.9e-08,i,?
O=C(Cn1c(CC(=O)N2CCOCC2)nc2ccccc21)Nc1ccc2c(c1)OC(F)(F)O2,0.6%,i,4.7e-09,i,17%
N#Cc1c(NCc2ccccc2)ccnc1NCc1cccnc1,0.3%,i,4.5e-08,i,?
CCCP(=O)(CC(=O)O)c1ccccc1 (stereo not given),0.9%,.,.,.,5%[11.4 µM]
O=C(O)c1cc(=O)[nH]c(SCc2ccccc2)n1,-0.8%[11.5 µM],i,1.6e-09,i,-4%[11.4 µM]
CC(C)C(=O)Nc1c2c(nc3ccccc13)N(C)CC2,4.6%,.,.,.,12%
O=C(Nc1cnn(Cc2ccc(F)cc2)c1)c1cc2nc(-c3ccco3)cc(C(F)(F)F)n2n1,0.4%,i,4.4e-08,i,-13%
Cc1nc(NC2CCCCC2)c2nc(-c3ccccc3)n(CC3CCN(C)CC3)c2n1,1.8%,.,.,.,?
COC(=O)C1=C(C(=O)c2ccc(C)cc2)C(c2ccc(OC)c(OC)c2)n2nnnc2N1 (stereo not given),2.2%,i,2e-08,i,0%

# An excerpt from above, showing only AID923, TSHR agonist and A647 fluor:
Molecule	AID923	TSHR agonist	A647 fluor
CCCC/C=C/C(NC(=O)c1ccco1)c1ccccc1 (stereo not given)	-2.0%	?	.
N#Cc1c(NCc2ccccc2)ccnc1NCc1cccnc1	0.3%	?	4.5e-08
O=C(Cn1c(CC(=O)N2CCOCC2)nc2ccccc21)Nc1ccc2c(c1)OC(F)(F)O2	0.6%	17%	4.7e-09

# The list continues.
SMILES,AID923,A488 autofl,A647 fluor,Resorufin autofl,TSHR agonist
Oc1ccc2cc(SSc3ccc4cc(O)ccc4c3)ccc2c1,-0.4%,.,.,.,?
Cn1c(CN2CCOCC2)nnc1SCC(=O)Nc1ccc2c(c1)OCCO2,0.3%,i,1.8e-08,i,-2%
O=C(Cn1nc(-c2ccccc2)ccc1=O)NCC1COCCO1 (stereo not given),0.6%,i,1e-09,i,0%
O=S(=O)(c1ccc(N2CCCC2)cc1)C(F)(F)F,-0.8%,i,1e-09,i,21%
O=C(CN1CCC(n2nnc3cc(C(F)(F)F)ccc32)CC1)N1CCc2ccccc21,0.6%,i,1e-09,i,11%
O=C1CN(C(=O)CSc2nnnn2-c2ccc(Cl)cc2)c2ccccc2N1,0.0%,i,1e-09,i,9%
C=CCn1c(SCC(=O)Nc2ccc3c(c2)OCCO3)nnc1-c1ccco1,0.3%,i,1.6e-08,i,22%
CC(C)NC(=O)N1CCCC2(CCN(S(=O)(=O)c3ccccc3)CC2)C1,1.5%,i,1.2e-08,i,?
O=C(CN(CCCN1CCOCC1)C(=O)Cn1nnc(-c2ccc(F)cc2)n1)NC1CCCCC1,-1.3%,i,1e-09,i,2%
CCC/C=C(\CCC)C(NC(=O)c1cccs1)c1ccc(C(F)(F)F)cc1 (stereo not given),-2.9%,.,.,.,?
CCN(CC)[C@@H](C)C(=O)N1c2ccccc2Sc2ccccc21,.,i,6.7e-09,i,.
O=C(Cc1coc(-c2ccc(F)cc2)n1)NCc1ccccc1,4.9%,.,.,.,?
CCc1nn(CC(=O)NCCN2CCN(C)CC2)c(=O)c2cc3occc3n12,1.7%,i,1e-09,i,-2%
COc1ccccc1N1CCN(C(=O)c2oc3ccccc3c2C)CC1,-0.9%,i,4.6e-09,i,5%
CC(C)(C)OC(=O)NCCCC(CCCNC(=O)OC(C)(C)C)C(=O)O,-0.4%,i,1e-09,i,-1%
CC(C)CC(NC(=O)C1CCCCC1)C(=O)NCc1ccccn1 (stereo not given),0.3%,i,2.8e-08,i,2%
Cn1nc(C(=O)NCc2ccc(F)cc2)c2ccccc2c1=O,-0.8%,i,3.7e-08,i,17%
COc1ccc(CNc2nc(-c3cccc(C#N)c3)nc3ccccc23)c(OC)c1,4.3%,i,3.2e-09,i,?
CCCC/C=C/C(NC(=O)c1ccc(C(=O)OC)cc1)c1ccccc1 (stereo not given),2.2%,.,.,.,?
CC1CN(C(=O)c2cc3c(s2)CCC3)CC(C)O1 (stereo not given),-1.0%,i,1e-09,i,14%
N#CC1=C(N)n2c(s/c(=C\c3ccco3)c2=O)=C(C#N)C1c1ccco1 (stereo not given),6.8%,i,7.4e-09,i,-2%
COC(=O)C1=C(C)NC(=O)NC1c1ccc(OCC(=O)N2CCCCC2)cc1 (stereo not given),1.0%,i,3.6e-08,i,0%[11.4 µM]
CC(C)Cc1cc(C(=O)NCCc2ccccc2)no1,-1.5%,.,.,.,-9%
O=C(c1ccco1)N1CCN(Cc2nnnn2CCc2ccccc2)CC1,0.4%,i,1.8e-09,i,3%
CCOCCCNC(=O)c1cc2c(=O)n3cccc(C)c3nc2n1C,5.6%,.,.,.,-1%
# New compounds follow:
SMILES,AID923,A488 autofl,A647 fluor,Resorufin autofl,TSHR agonist
Cc1ccc2cc3cc(C(=O)NCCCN4CCc5ccccc5C4)oc3nc2c1,2.2%,i,1.5e-08,i,19%
CC1(C)S[C@@H]2[C@H](NC(=O)[C@@H](NC(=O)N3CCNC3=O)c3ccccc3)C(=O)N2[C@H]1C(=O)O,-1.1%[25.7 µM],i,6.4e-09,i,-23%[25.6 µM]
CC(=O)C1C(c2cn(-c3ccccc3)nc2-c2cccs2)NC(=O)NC1(O)C(F)(F)F (stereo not given),4.6%,i,2.7e-09,i,5%
O=C(Nc1ccc(Cl)c(Cl)c1)OCc1cccnc1,-0.4%,i,1.2e-08,i,1%
BrC(c1cccc2ccccc12)c1cccc2ccccc12,-1.8%[11.5 µM],i,2.6e-08,i,4%[11.4 µM]
COc1ccccc1CNc1cc(-c2ccccc2C(F)(F)F)ncn1,-0.8%,i,1e-09,i,?
COc1cccc(NC(=O)C2CCCN2C(=O)Nc2ccccc2F)c1 (stereo not given),0.7%,i,1e-09,i,0%
CC(=O)OC[C@@H]1O[C@@H](O/N=C2/C[C@@H](O)[C@@H](O)[C@@H]3[C@@H]4C(=O)N(Cc5ccccc5)C(=O)[C@H]4CC[C@@H]23)[C@H](OC(C)=O)[C@H](OC(C)=O)[C@@H]1OC(C)=O,-1.6%[11.5 µM],.,.,.,-5%[11.4 µM]
O=S(=O)(Cc1ccccc1)N1CCN(C2Cc3ccccc3C2)CC1,0.5%,i,2.9e-09,i,-19%
O=C(Nc1ccccc1C(=O)N1CCCC1)c1cccc(S(=O)(=O)N2CCCCC2)c1,-1.0%,i,2.6e-08,i,3%
CN(C)Cc1ccccc1-c1nc(NC2CC2)c2ccccc2n1,5.0%,i,1e-09,i,?
